Rango complex inh: inhibitors of Rango-importin beta complex formation | Rango CFP/YFP FRET sensor + importin beta, 45 min | actives 0.031% (n = 340,000) | Q14974 | Potency, µM (top dose mostly 92.2 µM), without a hit: at the highest dose inhibition of complex formation; active = rising FRET ratio curve, often small or poorly fitted; inconclusive = mostly compound fluorescence or quenching in the first reads; inactive = flat curves in all reads;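 note: potency is the fitted concentration of half-maximal effect; 0% = DMSO wells and 100% = buffer wells lacking importin beta; nearly all actives have a fitted effect of over 15% in size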
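Inhibition scored from the CFP 486 nm/YFP 530 nm FRET ratio 45 min after adding 0.125 microM importin beta to 50 nM Rango biosensor preincubated 5 min with compound (room temperature, PBS with DTT, Tween-20, BSA). No-importin wells as positive control.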
Rango release inh: prevents RanGTP from dissociating the Rango-importin beta complex; Biochemical FRET Rango-importin beta, RanGTP-induced dissociation; Potency, µM (highest dose often 46.1 µM), for inactives: at the highest dose activity change, negative = inhibition; actives 0.071% (n = 340,000); AID 540253; active means falling FRET ratio curve, often poorly fitted, with flat reads before Ran was added; inconclusive means other falling curves, or compound fluorescence or quenching; inactive means flat or rising ratio curve;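 note: potency is the fitted concentration of half-maximal effect; % of control where 0% means no effect; nearly all actives have a fitted effect of over 45% in size; -100% = wells without RanGTP and RCC1; the record marks most hits as doubtful in a second field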
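Recombinant Rango FRET biosensor (EYFP–snurportin 1 IBB–cerulean CFP10) at 0.1 uM premixed with 0.25 uM importin beta in PBS, 1 mM DTT, 0.02% Tween-20, 0.1% BSA. Compound added 5 min; RanGTP-RCC1 (0.6 uM Ran, 2 mM GTP, 0.2 uM RCC1) then triggers release, read at 45 min.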
GLA inh pH 4.5: alpha-galactosidase A (human) inhibition, pH 4.5; purified enzyme, 4-MU-alpha-Gal fluorescence, pH 4.5; activity change, negative = inhibition, % at 105 µM; 230,000 tested, under 10 active; inconclusive = small, poorly fitted or top-dose-only inhibition, or a rising curve; inactive = flat fitted curve, though single readings scatter; no compound was filed as active;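 note: 0% = full activity with enzyme and -100% = basal without enzyme; dose as in the result columns while the protocol names 77 µM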
Target sequence (P06280 whole entry, looked up): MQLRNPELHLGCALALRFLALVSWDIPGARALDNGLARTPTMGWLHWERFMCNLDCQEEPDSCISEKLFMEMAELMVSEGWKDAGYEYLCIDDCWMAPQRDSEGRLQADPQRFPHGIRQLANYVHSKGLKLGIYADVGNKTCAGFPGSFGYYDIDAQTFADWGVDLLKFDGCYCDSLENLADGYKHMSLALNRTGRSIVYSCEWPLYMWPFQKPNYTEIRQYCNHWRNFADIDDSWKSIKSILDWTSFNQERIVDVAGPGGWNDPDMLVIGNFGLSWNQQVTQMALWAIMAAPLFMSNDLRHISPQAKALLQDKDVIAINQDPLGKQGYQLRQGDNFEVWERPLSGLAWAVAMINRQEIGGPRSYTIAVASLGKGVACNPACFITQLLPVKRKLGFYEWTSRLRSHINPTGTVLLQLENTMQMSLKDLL
miR-21 FLuc: raises the signal of a miR-21 reporter; HeLa miR-21 FLuc reporter, luciferase, 48 h; Potency, µM (top dose mostly 38.3 µM), inactives show at the highest dose reporter change, positive = more light; 340,000 tested, under 10 active; active = well fitted rising curve with a large enough effect; inconclusive = small, poorly fitted or top-dose-only effect; inactive = no such curve, though single readings can be large or run the other way;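 note: % of control where 0% means no effect; miR-21 action dims this reporter so a rising signal means less miR-21 action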
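HeLa cells endogenously expressing miR-21, stably carrying CMV-driven firefly luciferase with a downstream miR-21 binding site, 2000 cells/well. Titrations up to approximately 40 uM, 48 hours; luciferase luminescence read.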
Starred values were filed as active, the others as inactive; ? = inconclusive; nt = not tested or not shown. Only part of the results is shown; count on the stated rates, not on these rows.

SMILES	Rango complex inh	Rango release inh	GLA inh pH 4.5	miR-21 FLuc
COCCNC(=O)C(c1ccc(F)cc1)N(C(=O)CCC(=O)Nc1ccccn1)C1CCCCC1 (centres undefined)	4.8%	-0.8%	nt	1.6%
Cc1ccc(NC(=O)Cn2cnc3sc(C(=O)NCc4ccco4)c(C)c3c2=O)cc1Cl	0.3%	-1.3%	0.1	-3.7%
O=C(CC1C(=O)OCN1C(=O)OCc1ccccc1)OCC(=O)c1ccccc1 (centres undefined)	-2.3%	-15.9%	6.8	1.8%
COCc1c(C(=O)N2CCN(c3ccc(C(F)(F)F)cn3)CC2)oc2ccccc12	0.6%	-20.0%	-12.0	-6.7%
COc1ccccc1CNC(=O)CC12CC3CC(CC(Br)(C3)C1)C2	-0.6%	-1.5%	nt	2.5%
CCCCNC(=O)Nc1ccc(Br)cn1	0.8%	0.6%	-11.1	-41.6%
COCCN1C(=O)N(c2ccccc2)C(=O)C1CC(=O)Nc1cc(OC)cc(OC)c1 (centres undefined)	1.8%	5.0%	nt	-2.7%
Cc1ccc(C)c(NC(=S)N=Nc2c(O)n(C)c3ccc(S(=O)(=O)N4CCOCC4)cc23)c1	-0.2%	8.4%	-8.5	-4.7%
CC(=O)c1ccc(S(=O)(=O)N2CCN(C(=O)c3ccc(N)c([N+](=O)[O-])c3)CC2)cc1	-3.1%	4.8%	nt	nt
C=CCn1c(CCc2ccc(OC(C)C)cc2)n[nH]c1=S	2.4%	-7.7%	9.0	1.1%
CC1=C(C(=O)OCCOC(C)C)C(c2cc3c(cc2Br)OCO3)CC(=O)N1 (centres undefined)	7.0%	0.1%	-3.0	1.3%
COC(=O)c1[nH]c2ccc(Cl)cc2c1NC(=O)C1CC1	0.6%	4.7%	6.0	2.5%
O=C(Nc1ccc(S(=O)(=O)Nc2nccs2)cc1)c1ccc(S(=O)(=O)N2CCOCC2)cc1	-0.7%	0.1%	-8.2	0.2%
CSc1nncc(/C(C)=N/O)n1	3.2%	10.0%	-1.5	-3.8%
COC(=O)c1ccc(NC(=O)Cn2nc(C)c3ccccc3c2=O)cc1	0.1%	13.0%	nt	-3.3%
C=C(C)C(=O)Nc1cccc(C2=NOC3(C2)C[C@@H](C(N)=O)N(C(=O)c2cc([N+](=O)[O-])cc([N+](=O)[O-])c2)C3)c1 (some centres undefined)	?	-0.7%	2.1	7.3%
N=c1ccn(CC(=O)NC(N)=O)c2ccccc12	-0.8%	2.9%	nt	-1.6%
Cc1cccc(Cn2cccc2/C=C2/C(=N)N3C=CSC3=NC2=O)c1	?	?	-7.3	-12.3%
Cc1cccc(NC(=O)COC(=O)COc2ccc3c(c2)CCC3)c1	-3.4%	-6.9%	nt	nt
CCOC(=O)N1CCN(C(=O)CS(=O)(=O)c2cn(Cc3ccc(F)cc3)c3ccccc23)CC1	0.9%	0.8%	-14.1	0.5%
COc1cccc(N2CC(O)=C(c3ccccc3)C2=N)c1	-1.2%	15.6%	1.4	-7.3%
O=C1Cc2cc(NS(=O)(=O)c3cc(F)ccc3F)cc3c2N1CCC3	-0.8%	-8.3%	nt	nt
Cc1cccc(CCNC(=O)CCNC(=O)Cn2ccc3ccccc3c2=O)c1	?	5.0%	7.5	-9.3%
CCNC(=S)N1CCC(NC(=O)c2ccco2)CC1	-4.5%	4.9%	-5.4	-0.8%
Cn1c(-c2ccc(F)cc2)cc2onc(-c3ccccc3Cl)c2c1=O	0.1%	-17.2%	nt	nt

More results.
SMILES	Rango complex inh	Rango release inh	GLA inh pH 4.5	miR-21 FLuc
COc1ccc(C(=O)NC(C)c2ccncc2)cc1S(=O)(=O)N(C)Cc1ccccc1 (centres undefined)	-4.9%	-1.7%	nt	nt
COc1ccc2nc(C)cc(Nc3ccc(C)cc3)c2c1	-0.7%	14.4%	nt	18.7%
O=c1cc(-c2ccccc2)[nH]n1-c1ccc([N+](=O)[O-])cc1	-0.6%	-2.1%	8.2	-19.7%
COc1ccc(CN=Cc2c(C(=O)O)[nH]c3ccccc23)cc1	-2.9%	-11.4%	-14.2	-0.2%
CCOC(=O)C1=CNS(=O)(=O)NC1CCc1ccccc1 (centres undefined)	-0.2%	-5.9%	nt	nt
CCOc1ccc(S(=O)(=O)NCCC(=O)N2CC(C)OC(C)C2)cc1 (centres undefined)	0.8%	0.3%	nt	nt
CCC1CCCCN1CCCNC(=O)c1ccc2nc(N3CCCCC3)sc2c1 (centres undefined)	-0.3%	24.1%	nt	-58.4%
Cn1c(SCc2nnc(-c3ccccc3Br)o2)nc2sc3c(c2c1=O)CCC3	-1.2%	?	-2.4	-1.4%
CCOC(=O)C1CCN(C(=O)COc2ccc3c(c2)OCO3)CC1	-0.4%	-1.7%	nt	0.3%
CCN1CCN(Cc2ccc(NC(=O)c3cc(NC(=O)c4cc5cccc(OC)c5o4)cc(OC)c3)cc2C(F)(F)F)CC1	-2.4%	1.4%	-3.3	?
Nc1nc(-c2ccccc2)nn1C(=O)c1ccco1	-2.7%	-3.4%	8.0	-0.1%
COc1ccc(Cl)cc1NC(=O)CCN1CCN(C)CC1	0.1%	-6.1%	8.3	2.5%
FC(F)(F)c1cccc(-c2ccc(/C=N/Nc3nncc(-c4ccccc4)n3)o2)c1	-0.3%	-5.1%	-7.7	-1.5%
COc1ccc(NC(=O)CCCNC(=O)Cn2cnc3sc4c(c3c2=O)CCCC4)cc1OC	-0.1%	-5.1%	nt	6.6%
Cc1cc(C)cc(NS(=O)(=O)Cc2ccccc2)c1	1.3%	-2.9%	nt	-6.7%
Cc1cccc(C(=O)NNC(=O)c2cccc(C)c2)c1	-1.1%	-8.7%	-4.3	-22.2%
CCC(=O)N1N=C(c2ccc(NS(=O)(=O)CC)cc2)CC1c1ccc(C)cc1 (centres undefined)	-0.7%	23.0%	8.4	-5.2%
Cc1ccc(N(CC(=O)NC2CCCC2)C(=O)CNC(=O)c2cccs2)cc1F	-1.9%	6.7%	nt	2.2%
CCC(=O)N1CC23C=CC(CC2CC12CCCCC2)O3 (centres undefined)	4.8%	2.0%	3.2	1.5%
O=C(CN(c1ccccc1)S(=O)(=O)c1ccccc1)NCCSc1ccccn1	-2.9%	-6.0%	0.6	1.2%
CCC(C)(C)NC(=O)c1ccc(S(=O)(=O)N(C)c2ccccc2OC)cc1	5.5%	-14.3%	10.4	-6.6%
Nc1c(C(=O)NCCN2CCOCC2)c2nc3ccccc3nc2n1CCc1ccccc1	?	?	13.9	22.9%
CC(C)c1nc2oc3c(=O)[nH]cnc3c2c2c1CCC2	-2.1%	0.2%	3.2	-2.4%
CCOC(=O)c1cnc2ccc(C)cc2c1NCCO	0.9%	1.1%	0.5	-2.1%
Cc1ccc([N+](=O)[O-])c(OCC(=O)OCC(=O)c2ccccc2)c1	0.0%	7.0%	-10.9	-6.3%

Entries above with fluorine, in the order listed:
SMILES	Rango complex inh	Rango release inh	GLA inh pH 4.5	miR-21 FLuc
COCCNC(=O)C(c1ccc(F)cc1)N(C(=O)CCC(=O)Nc1ccccn1)C1CCCCC1 (centres undefined)	4.8%	-0.8%	nt	1.6%
COCc1c(C(=O)N2CCN(c3ccc(C(F)(F)F)cn3)CC2)oc2ccccc12	0.6%	-20.0%	-12.0	-6.7%
CCOC(=O)N1CCN(C(=O)CS(=O)(=O)c2cn(Cc3ccc(F)cc3)c3ccccc23)CC1	0.9%	0.8%	-14.1	0.5%
O=C1Cc2cc(NS(=O)(=O)c3cc(F)ccc3F)cc3c2N1CCC3	-0.8%	-8.3%	nt	nt
Cn1c(-c2ccc(F)cc2)cc2onc(-c3ccccc3Cl)c2c1=O	0.1%	-17.2%	nt	nt
CCN1CCN(Cc2ccc(NC(=O)c3cc(NC(=O)c4cc5cccc(OC)c5o4)cc(OC)c3)cc2C(F)(F)F)CC1	-2.4%	1.4%	-3.3	?
FC(F)(F)c1cccc(-c2ccc(/C=N/Nc3nncc(-c4ccccc4)n3)o2)c1	-0.3%	-5.1%	-7.7	-1.5%
Cc1ccc(N(CC(=O)NC2CCCC2)C(=O)CNC(=O)c2cccs2)cc1F	-1.9%	6.7%	nt	2.2%

Carrying on.
SMILES	Rango complex inh	Rango release inh	GLA inh pH 4.5	miR-21 FLuc
NCC1CCC(C(=O)Oc2ccc(CCC(=O)O)cc2)CC1 (centres undefined)	-2.8%	8.1%	nt	nt
O=C(c1cc(-c2ccncc2)nc2ccc(Cl)cc12)N1CCN(Cc2ccc3c(c2)OCO3)CC1	0.6%	28.7%	0.7	-1.4%
Cc1ccc(NC(=O)CSc2nnc(COc3ccccc3F)n2N)cc1S(=O)(=O)N1CCOCC1	-0.9%	-2.6%	nt	nt
O=C(O)c1c(C(=O)N2N=C3/C(=C/c4ccccc4)CCCC3C2c2ccccc2)cccc1[N+](=O)[O-] (centres undefined)	?	1.5%	-4.7	-12.0%
CC(=O)NC(Cc1ccc(C)cc1)C(=O)NC1CCN(C(=O)c2ccc([N+](=O)[O-])cc2)CC1 (centres undefined)	-0.1%	-4.5%	9.5	0.4%
COCCCn1c(=S)[nH]c2ccc(N3CCOCC3)cc2c1=O	?	?	1.1	-28.4%
CN(C)CCNCCCOc1ccccc1-c1ccccc1	nt	nt	-28.8	-13.4%
CCN(CC)CCn1c(NCc2ccc(C)o2)nc2ccccc21	-2.7%	1.0%	1.7	-1.9%
Cc1cc(-c2ccc(Cl)cc2Cl)c(C#N)c(=O)[nH]1	?	-7.4%	-3.7	-38.9%
CCc1ccc2[nH]c(=O)c(C(c3nnnn3Cc3ccc(OC)cc3)N3CCOCC3)cc2c1 (centres undefined)	3.5%	-16.7%	-9.5	-0.9%
COc1ccc(Cc2nc3ccc(C(=O)NCCSC)cc3o2)cc1	2.5%	-11.0%	nt	nt
N#CC(C(=O)NC1CC1)c1nc2ccccc2nc1N1CCN(C/C=C/c2ccccc2)CC1 (centres undefined)	?	?	5.2	1.2%
On1nnc2ccc3ccccc3c21	-0.4%	-13.0%	3.0	-8.2%
COc1cccc(CC(=O)OC(C)C(=O)NCc2ccc3c(c2)OCO3)c1 (centres undefined)	-3.4%	2.7%	nt	nt
Clc1ccc(-c2nnc3n2CCCC3)cc1	-1.1%	-5.3%	-1.9	-2.0%
CC(C)c1[nH]nc2c1C(c1cccs1)C(C#N)=C(N)O2 (centres undefined)	-4.6%	3.7%	-20.0	-0.9%
O=C(NCc1ccccc1)c1ccc2nc(-c3ccco3)c(-c3ccco3)nc2c1	?	?	-9.6	12.1%
CCCCN(C(=O)c1cc2c(s1)CCC2)c1c(N)n(CCCC)c(=O)[nH]c1=O	-0.5%	-1.7%	nt	nt
CO/N=C(\c1nonc1N)N1CCN(c2ccc([N+](=O)[O-])cc2Cl)CC1	-5.0%	-7.0%	-5.8	-9.0%
CCOC(=O)c1c[nH]c2c(Cl)ccc(Cl)c2c1=O	0.4%	-21.4%	-5.6	-9.1%
NS(=O)(=O)c1ccc(NNC(=O)c2ccc(F)cc2F)cc1	3.9%	-3.7%	-3.4	-0.5%
CCCCCCCCCCCCN1[C@@H](CC(=O)OC)c2cc(F)cc(F)c2S1(=O)=O	3.2%	-6.8%	nt	nt
CCOc1ccc(-c2cc(C(=O)NN=C3CCN(C)CC3)[nH]n2)cc1	0.1%	1.5%	6.8	-26.1%
Nn1c(SCc2ccccc2)nc2c(cnn2-c2ccccc2)c1=O	-0.7%	9.8%	-6.5	-45.5%
CC(C)C[C@H](NC(=O)C1CC(=O)N(c2ccc3c(c2)OCCO3)C1)C(=O)N1CCCCC1 (some centres undefined)	1.3%	0.7%	nt	2.3%
CCCCN(C)C(=O)C(Cc1ccccc1)NS(=O)(=O)c1ccc2c(c1)CCC(=O)N2 (centres undefined)	0.0%	11.6%	-0.2	-1.1%
COc1cccc(C(=O)NC(=S)Nc2ccc(Cl)cc2C(=O)O)c1	-1.3%	0.1%	-3.3	-9.8%
CCc1c(O)nc(SCC(=O)Nc2ccccc2OC)n(-c2ccccc2C)c1=O	0.6%	-21.7%	nt	-0.5%
O=C(NC1CCCN(C2Cc3ccccc3C2)C1)c1ccc(F)cc1Cl (centres undefined)	-1.2%	-5.2%	nt	1.0%
CSCCC(C(=O)N1C[C@]2(C)C[C@H]1CC(C)(C)C2)N1C(=O)c2ccccc2C1=O (some centres undefined)	6.3%	-25.0%	-1.5	0.7%

Compound activity from PubChem BioAssay.
